High-throughput results: PubChem BioAssay, ICCB-Longwood Screening Facility, Harvard Medical School
GIV-Gai inh: blocks GIV peptide binding to rat Galpha-i3. 0.42% of 210,000 active. Galpha-i3/FITC-GIV peptide fluorescence polarization, 90 min; stronger effect = lower value; scaled: aluminum fluoride 0%, vehicle 100%. P08753. percent of control (FP), % (test concentration not listed). AID 1224905;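 active means replicate mean at 85% of control or lower, very high polarization wells dropped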;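 further: wells of about 15 µL received 100 nL stock; the first replicate is given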
Target sequence (P08753 whole entry, looked up): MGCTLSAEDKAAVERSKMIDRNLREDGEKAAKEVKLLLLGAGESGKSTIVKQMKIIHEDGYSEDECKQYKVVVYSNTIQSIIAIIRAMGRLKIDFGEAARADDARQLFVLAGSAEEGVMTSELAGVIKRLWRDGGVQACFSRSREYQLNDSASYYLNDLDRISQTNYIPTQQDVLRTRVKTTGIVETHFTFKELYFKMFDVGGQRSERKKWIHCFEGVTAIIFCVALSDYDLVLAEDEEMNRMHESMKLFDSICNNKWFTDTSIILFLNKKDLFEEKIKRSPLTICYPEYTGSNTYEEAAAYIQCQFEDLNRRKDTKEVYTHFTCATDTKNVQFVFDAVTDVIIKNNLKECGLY
Sa growth 42C: S. aureus growth inhibition; S. aureus RN4220 growth, OD600, 20 h, 42 °C; stronger effect = lower value; relative growth, % (test concentration not listed); 0.53% of 170,000 active; AID 720641;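 active means growth at 42 °C up to 50% and 20 or more points under that at 30 °C, or under 10% at both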;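 further: 300 nL library stock went into each well; scaled to the means of positive and negative controls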
HCMV NEC inh: cytomegalovirus nuclear egress complex inhibition. 0.15% of 190,000 active. AID 1918969. HTRF UL50-UL53 interaction, normalized percent inhibition. inhibition, % (test concentration not listed);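 active means both replicates at 50% or more, plus weaker picks with an unusually low signal ratio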;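 further: stock transfer was 100 nL into about 20 µL; 0% = negative control wells and 100% = wells with untagged competitor protein; inactives centre near -12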
Sa growth 42C second temp: second read-out of Sa growth 42C, no call of its own (marks repeat the call); relative growth, %; measured here: growth at 30 °C;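 optical density after 20 h as mean of two plates; 100% = untreated growth and lower means inhibition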
An asterisk follows results filed as active; & = joins results of further samples.

Screening CCc1nn(-c2ccccc2)c2nc(-c3ccccc3)nc(SCC(=O)NCc3ccccc3)c12 returned GIV-Gai inh 100 and HCMV NEC inh -6.
`COC(=O)c1ccc(Oc2c(F)c(F)nc(F)c2F)cc1` gave GIV-Gai inh 102, Sa growth 42C 88, HCMV NEC inh -21 and Sa growth 42C second temp 80.
`CCCn1cnc2cc(NCc3ccncc3)ccc21` gave GIV-Gai inh 100, Sa growth 42C 79 and Sa growth 42C second temp 82.
`COC(=O)c1c(C)[nH]c(C)c1/C=N/OC(=O)c1ccco1` gave GIV-Gai inh 102, Sa growth 42C 87, HCMV NEC inh -14 and Sa growth 42C second temp 89.
O=C(OC1OCCOC1OC(=O)C1CCCCC1)C1CCCCC1 (stereo unspecified) was read as GIV-Gai inh 100, Sa growth 42C 87, HCMV NEC inh -5 and Sa growth 42C second temp 89.
For Cc1cc(C)n(-c2nncc(-c3ccccc3)n2)n1 the results were GIV-Gai inh 101, Sa growth 42C 94 and Sa growth 42C second temp 95.
For O=C(c1ccc2ncsc2c1)N1CCCC1c1cccs1 (stereo unspecified) the results were Sa growth 42C 102, HCMV NEC inh -12 and Sa growth 42C second temp 86.
`Cn1ccnc1SCC(=O)Nc1ccc(C2CCCCC2)cc1` gave GIV-Gai inh 108, Sa growth 42C 102, HCMV NEC inh -12 and Sa growth 42C second temp 84.
For O=C(Cn1cnc2sc3c(c2c1=O)CCCC3)NCc1ccccc1 the results were Sa growth 42C 113, HCMV NEC inh -7 and Sa growth 42C second temp 83.
For CCN(C(=O)CSc1nc2ccccc2o1)c1ccccc1 the results were Sa growth 42C 119, HCMV NEC inh -28 and Sa growth 42C second temp 85.
COC(=O)C1=CN(c2cc(C)cc(C)c2)c2cc(F)c(F)cc2S1(=O)=O was read as GIV-Gai inh 96 and HCMV NEC inh -5.
For O=C1C(Cc2ccccc2)NC(=S)N1c1ccccc1 (stereo unspecified) the results were GIV-Gai inh 97 and HCMV NEC inh -28.
CN(C)C(=O)CSc1nnc(-c2cccnc2)n1-c1ccccc1 was read as GIV-Gai inh 100, Sa growth 42C 98, HCMV NEC inh -4 and Sa growth 42C second temp 106.
`Cc1noc2c1C(c1ccc(Cl)cc1)C1=C(CC(c3ccc(O)cc3)CC1=O)N2` (stereo unspecified) gave GIV-Gai inh 107 and HCMV NEC inh -18.
`O=C(O)c1ccccc1S(=O)(=O)N1CCCCC1` gave Sa growth 42C 95, HCMV NEC inh -5 and Sa growth 42C second temp 98.
`N#CCC(=O)NCc1ccncc1` gave GIV-Gai inh 106, Sa growth 42C 100, HCMV NEC inh -13 and Sa growth 42C second temp 62.
For CCc1ccc(S(=O)(=O)c2nnn3c2nc(NC2CCCC2)c2sccc23)cc1 the results were GIV-Gai inh 105, Sa growth 42C 110 and Sa growth 42C second temp 82.
For CCCN1CCN(Cc2ccc(OCC(=O)Nc3ccc(Br)cc3)c(OC)c2)CC1 the results were Sa growth 42C 80, HCMV NEC inh -34 and Sa growth 42C second temp 90.
CCOC(=O)c1nn(-c2ccc(Cl)cc2Cl)c(=N)c(C#N)c1C was read as GIV-Gai inh 87, Sa growth 42C 94, HCMV NEC inh -32 and Sa growth 42C second temp 88.
For COc1ccccc1NC(=O)CSc1cn(CC(=O)N2CCCC2)c2ccccc12 the results were GIV-Gai inh 108, Sa growth 42C 91 and Sa growth 42C second temp 87.
`CC(C)CNC(=O)C1CCN(c2ccc(S(=O)(=O)N3CCOCC3)cc2)CC1` gave GIV-Gai inh 99, Sa growth 42C 98, HCMV NEC inh -13 and Sa growth 42C second temp 97.
Screening CC1C(O)CC(c2ccccc2)NC1c1ccccc1 (stereo unspecified) returned GIV-Gai inh 103, Sa growth 42C 106, HCMV NEC inh -10 and Sa growth 42C second temp 89.
`COc1ccccc1N(C(=O)c1ccccc1O)C(C)C1CC1` (stereo unspecified) gave Sa growth 42C 100, HCMV NEC inh 6 and Sa growth 42C second temp 96.
Screening COc1ccccc1C1CCN(C(=O)Nc2ccccc2C#N)CC1 returned GIV-Gai inh 110, Sa growth 42C 108, HCMV NEC inh -6 and Sa growth 42C second temp 98.
C=CCn1c(C(Cc2ccccc2)NC(=O)c2ccccc2)nc2ccccc21 (stereo unspecified) was read as GIV-Gai inh 103, Sa growth 42C 93 and Sa growth 42C second temp 84.
`CC(=O)O[C@H]1C[C@@H]2CC[C@@H]3[C@H](CC[C@@]4(C)[C@H]3C[C@H]([N+]3(C)CCCCC3)[C@@H]4OC(C)=O)[C@@]2(C)C[C@@H]1[N+]1(C)CCCCC1` gave GIV-Gai inh 107&100, Sa growth 42C 95, HCMV NEC inh -5&-6&-3 and Sa growth 42C second temp 94.
`COc1ccc2c(c1)C=C(C(=O)NCCN(C)C)CO2` gave GIV-Gai inh 104 and HCMV NEC inh -56.
For CCOC(=O)c1c(-c2ccco2)csc1NC(=O)COC(=O)Cn1[nH]c(=O)c2ccccc2c1=O the results were Sa growth 42C 58, HCMV NEC inh -11 and Sa growth 42C second temp 90.
Screening CC1(C)CC(=O)C(C(C2=C(O)CC(C)(C)CC2=O)c2ccccc2)C(=O)C1 (stereo unspecified) returned Sa growth 42C 94, HCMV NEC inh -1 and Sa growth 42C second temp 97.
`CCC1CN(C(=O)NCc2ccccc2)c2ccccc2S1` (stereo unspecified) gave GIV-Gai inh 100, Sa growth 42C 106, HCMV NEC inh -20 and Sa growth 42C second temp 91.
COc1cc(C2Nc3c(cccc3C(F)(F)F)C3C=CCC32)cc(Br)c1OC (stereo unspecified) was read as GIV-Gai inh 97 and HCMV NEC inh -5.
`c1ccc(-c2cc(N3CCCC3)nc3cc4c(cc23)OCCO4)cc1` gave Sa growth 42C 105, HCMV NEC inh -1 and Sa growth 42C second temp 100.
Screening CCCN1CCN(CCCN2C(=O)c3cc4oc(C)cc4n3CC2(C)C(=O)NC2CCCCC2)CC1 (stereo unspecified) returned GIV-Gai inh 104 and HCMV NEC inh -16.
Screening Cc1ccc([N+](=O)[O-])cc1S(=O)(=O)N1CCn2cccc2C1c1ccccc1 (stereo unspecified) returned GIV-Gai inh 103, Sa growth 42C 114 and Sa growth 42C second temp 98.
`FC(F)(F)c1cc(-c2ccc(Cl)cc2)nc2ccnn12` gave GIV-Gai inh 97, Sa growth 42C 103, HCMV NEC inh -18 and Sa growth 42C second temp 66.
Screening COc1cc(OC)cc(C(=O)NCC(=O)OCC2COc3ccccc3O2)c1 (stereo unspecified) returned Sa growth 42C 81, HCMV NEC inh -21 and Sa growth 42C second temp 91.
Screening CC(C)OCCCNC(=O)CCCn1c(SCC(N)=O)nc2c(sc3ccccc32)c1=O returned GIV-Gai inh 98, Sa growth 42C 111, HCMV NEC inh -30 and Sa growth 42C second temp 85.
Screening Cc1cc(NC(=O)c2ccc(CN3CCN(Cc4ccccn4)CC3)cc2)ccc1Cl returned Sa growth 42C 114, HCMV NEC inh -10 and Sa growth 42C second temp 95.
For CCc1ccc(NC(=O)C2c3ccccc3C(=O)N(CCOC)C2c2c[nH]c3ccccc23)cc1 (stereo unspecified) the results were GIV-Gai inh 103, Sa growth 42C 110 and Sa growth 42C second temp 88.
Screening CCOc1ccccc1C(=O)N(CN1CCCC1=O)c1ccccc1 returned GIV-Gai inh 100, Sa growth 42C 90, HCMV NEC inh -22 and Sa growth 42C second temp 84.
CC(C)c1ccc(C(=O)OCC(=O)NCc2ccc(Cl)cc2)cc1 was read as Sa growth 42C 89, HCMV NEC inh -21 and Sa growth 42C second temp 86.
O=C(c1ccc2c(c1)OCCO2)N(c1ccccn1)C1CCCCC1 was read as Sa growth 42C 86, HCMV NEC inh -2 and Sa growth 42C second temp 92.
For CSc1sc(C(=O)Oc2ccccc2)c2c1C(=O)CC(C)(C)C2 the results were GIV-Gai inh 95, Sa growth 42C 106, HCMV NEC inh -2 and Sa growth 42C second temp 82.
For COc1ccc(C2=NN(S(C)(=O)=O)C(c3cn(-c4ccccc4)nc3-c3cccs3)C2)cc1 (stereo unspecified) the results were GIV-Gai inh 116, Sa growth 42C 103, HCMV NEC inh 7 and Sa growth 42C second temp 102.
Screening COc1cc(S(=O)(=O)N2CCNCC2)ccc1-n1cnnn1 returned GIV-Gai inh 104, Sa growth 42C 104, HCMV NEC inh -1 and Sa growth 42C second temp 93.
CC(c1ccccc1)N1CCC(CNC(=O)Nc2ccc(Cl)cc2)C1 (stereo unspecified) was read as GIV-Gai inh 102, Sa growth 42C 89 and Sa growth 42C second temp 67.
Cc1ccc(NC(=O)Cn2c(=O)oc3ccccc32)cc1C was read as GIV-Gai inh 104, Sa growth 42C 123 and Sa growth 42C second temp 100.
For Cc1cc(C(=O)Nc2ccc(F)c(Cl)c2)no1 the results were GIV-Gai inh 105 and HCMV NEC inh -14.
`O=C(OC1Cn2c(=O)ccc(=O)n2C1)c1ccccc1Cl` gave Sa growth 42C 84, HCMV NEC inh -32 and Sa growth 42C second temp 89.
Screening Cc1ccc(Oc2c(C(F)(F)F)oc3c(CN4CCCCC4C)c(O)ccc3c2=O)cc1 (stereo unspecified) returned GIV-Gai inh 105, Sa growth 42C 89, HCMV NEC inh -11 and Sa growth 42C second temp 82.
Screening CCC(CC)C(=O)Nc1cc(-c2ccccc2F)nn1-c1ccccc1 returned GIV-Gai inh 103, Sa growth 42C 86 and Sa growth 42C second temp 88.
`CCCc1noc(Cn2cnc3c([nH]c4ccc(C)cc43)c2=O)n1` gave GIV-Gai inh 99 and HCMV NEC inh -38.
CC(C)NS(=O)(=O)c1ccccc1I was read as GIV-Gai inh 106, Sa growth 42C 111, HCMV NEC inh 10 and Sa growth 42C second temp 93.
`CC1=NC(=O)/C(=C\c2ccc(Cl)cc2)N(C)N1c1ccccc1` gave GIV-Gai inh 108, Sa growth 42C 99, HCMV NEC inh -2 and Sa growth 42C second temp 86.
For Cc1ccc(Sc2c(CS(=O)(=O)c3ccccc3)[nH]c3ccccc23)cc1 the results were GIV-Gai inh 107, Sa growth 42C 95 and Sa growth 42C second temp 103.
Screening Cc1[nH]n(-c2ccccc2)c(=O)c1Cc1c(Cl)cccc1Cl returned GIV-Gai inh 104, Sa growth 42C 99, HCMV NEC inh -15 and Sa growth 42C second temp 63.
Cc1cccc(CNC(=O)CN2C(=O)C3CCCCN3c3ccc(C(=O)N4CCCC4)cc32)c1 (stereo unspecified) was read as GIV-Gai inh 100, Sa growth 42C 82 and Sa growth 42C second temp 91.
For CCC(SC1=NCCS1)C(=O)Nc1ccccc1OC (stereo unspecified) the results were GIV-Gai inh 107, Sa growth 42C 117, HCMV NEC inh -2 and Sa growth 42C second temp 86.
CCN(CC)C(=O)CSc1nc(-c2ccc(OC)cc2)nc2c1Cc1cccc(OC)c1O2 was read as GIV-Gai inh 108 and HCMV NEC inh -5.
For CCOC(=O)C1=C(C)N(C2CCCCC2)C(=O)C1 the results were GIV-Gai inh 99, Sa growth 42C 115, HCMV NEC inh -10 and Sa growth 42C second temp 89.

In the list so far, these contain fluorine:
`COC(=O)c1ccc(Oc2c(F)c(F)nc(F)c2F)cc1` gave GIV-Gai inh 102, Sa growth 42C 88, HCMV NEC inh -21 and Sa growth 42C second temp 80.
COC(=O)C1=CN(c2cc(C)cc(C)c2)c2cc(F)c(F)cc2S1(=O)=O was read as GIV-Gai inh 96 and HCMV NEC inh -5.
COc1cc(C2Nc3c(cccc3C(F)(F)F)C3C=CCC32)cc(Br)c1OC (stereo unspecified) was read as GIV-Gai inh 97 and HCMV NEC inh -5.
`FC(F)(F)c1cc(-c2ccc(Cl)cc2)nc2ccnn12` gave GIV-Gai inh 97, Sa growth 42C 103, HCMV NEC inh -18 and Sa growth 42C second temp 66.
For Cc1cc(C(=O)Nc2ccc(F)c(Cl)c2)no1 the results were GIV-Gai inh 105 and HCMV NEC inh -14.
Screening Cc1ccc(Oc2c(C(F)(F)F)oc3c(CN4CCCCC4C)c(O)ccc3c2=O)cc1 (stereo unspecified) returned GIV-Gai inh 105, Sa growth 42C 89, HCMV NEC inh -11 and Sa growth 42C second temp 82.
Screening CCC(CC)C(=O)Nc1cc(-c2ccccc2F)nn1-c1ccccc1 returned GIV-Gai inh 103, Sa growth 42C 86 and Sa growth 42C second temp 88.

The list continues.
For Fc1ccccc1-c1nc(N2CCN(c3cccc(Cl)c3)CC2)c2ccccc2n1 the results were GIV-Gai inh 106, Sa growth 42C 99, HCMV NEC inh -22 and Sa growth 42C second temp 91.
`COc1ccc(CNC(=O)Cc2c(C)c3cc4c(C)coc4c(C)c3oc2=O)cc1` gave GIV-Gai inh 102, Sa growth 42C 109, HCMV NEC inh -24 and Sa growth 42C second temp 94.
For Cc1ccc(Nc2ncc(C(=O)Nc3ccccc3F)c3ccccc23)cc1Cl the results were GIV-Gai inh 101 and HCMV NEC inh -27.
`O=C(CSc1n[nH]c(=O)[nH]c1=O)Nc1ccc(SC(F)F)cc1` gave Sa growth 42C 90, HCMV NEC inh 1 and Sa growth 42C second temp 94.
Screening COc1ccc(OC)c(C2Nc3ccccc3NC3=C2C(=O)CC(c2ccc(OC)c(OC)c2)C3)c1 (stereo unspecified) returned GIV-Gai inh 109 and HCMV NEC inh -12.
CCCOc1ccc(CNC(=O)Cn2cnc3c([nH]c4ccc(C)cc43)c2=O)cc1 was read as GIV-Gai inh 97 and HCMV NEC inh -11.
O=C(NCc1ccccc1)c1cnc2sc(N3CCCCC3)nn2c1=O was read as GIV-Gai inh 99 and HCMV NEC inh -21.
`Cc1cc(/C=C2/NC(=O)N(Cc3ccc(Br)cc3)C2=O)c(C)n1-c1ccc2c(c1)OCO2` gave GIV-Gai inh 103, Sa growth 42C 93 and Sa growth 42C second temp 81.
